# Screens from PubChem BioAssay.
# PINK1 expr mod: modulators of PINK1 expression | actives 0.2% (n = 410,000) | Potency, µM (series often up to 76.6 µM), for inactives: at the top dose activation (PINK1 increase), actives largely listed as activators | AID 624263 | PINK1 immunofluorescence, high-content cytometry, 24 h; active = well fitted activation curve with a large enough effect; inconclusive = small, poorly fitted or top-dose-only effect; inactive = flat fitted curve, though single readings scatter; cell line not stated here;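 note: potency is the fitted concentration of half-maximal effect; % of control where 0% means no effect; nearly all actives have a fitted effect of over 65% in size; a mitochondrial uncoupler was the plate control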
#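 Fluorescence from anti-PINK1 antibody, together with nuclear and cell stains, was scanned on a laser-scanning cytometer. Before staining, stable-line cells were incubated 24 hours with compounds at 5 concentrations; primary antibody 12 h at 10 degrees C.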
# gsp ag: agonists of gsp mutant (McCune-Albright syndrome). gsp mutant cells, cAMP HTRF, 30 min; control for the full effect not named in the record. Potency, µM (doses to about 76.9 µM), for inactives: at the top dose activation (cAMP increase), most hits filed as activators. actives 0.13% (n = 340,000); active = well fitted activation curve with a large enough effect; inconclusive = small, poorly fitted or top-dose-only effect, or another doubt; inactive = no such curve, though single readings can be large or run the other way; cell line not stated here;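 note: phosphodiesterase inhibitor Ro 20-1724 added with compounds to block cAMP breakdown; potency is the fitted concentration of half-maximal effect; nearly all actives have a fitted effect of over 60% in size; about a fifth of the inactives were tested at one dose only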
#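 Cells in DMEM/10% FBS with G418 were pretreated with compounds in DMSO plus […] (300 uM stock) for 30 min at 37C. cAMP was measured by HTRF (cAMP-d2 plus anti-cAMP antibody-K) after 30 min at room temperature.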
# ClpP mod: qHTS Assay for Activators of ClpP; ATP-dependent Clp protease proteolytic subunit (Bacillus subtilis (strain 168)), P80244; actives 1.9% (n = 340,000); purified B. subtilis ClpP, FRET peptide cleavage, 20 min; Potency, µM (titrated, usually from 57.5 µM), without a hit: at the highest dose activity change, negative = active; AID 651965, 2013; active = well fitted falling curve with a large enough effect; inconclusive = small, poorly fitted or top-dose-only effect; inactive = no such curve, though single readings can be large or run the other way; note: potency is the fitted concentration of half-maximal effect; the source files actives as falling curves though it sought activators and does not explain the sign; nearly all actives have a fitted effect of over 65% in size; many hits overshoot -100%
# Target sequence (P80244 whole entry, looked up): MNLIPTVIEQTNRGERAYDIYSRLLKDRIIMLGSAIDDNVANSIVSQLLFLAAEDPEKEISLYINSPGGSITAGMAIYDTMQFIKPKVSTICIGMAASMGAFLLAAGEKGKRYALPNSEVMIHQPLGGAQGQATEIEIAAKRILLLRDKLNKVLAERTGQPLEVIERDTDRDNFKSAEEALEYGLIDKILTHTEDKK
#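 Buffer: 100 mM Tris/HCl pH8, 100 mM KCl, 0.05% low protease BSA, 2.5% glycerol, 0.01% Tween-20. ClpP 10 microg/mL final; 20 min RT; delta FRET normalized to ADEP and DMSO controls.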
# Menin MLL FP FL: displaces fluorescein MLL peptide from human menin; FP activity change, % at 61.4 µM; AID 1766; 290,000 tested, under 10 active; Fluorescence polarization, fluorescein-MLL peptide displacement from menin; inconclusive = falling polarisation curve, or a change in total fluorescence; inactive = total fluorescence flat and polarisation flat or rising; no compound was filed as active; the % refers to the polarisation; negative = inhibition;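 note: % of control where 0% means no effect; inhibitors lower the polarisation; unlabelled MLL peptide was the positive control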
# D2 agonist: activates the human D2 dopamine receptor | activation, % (no concentration beside the values) | DiscoveRx PathHunter D2 beta-arrestin, luminescence, 90 min; 100% = 57 uM dopamine signal | P14416 | actives 0.084% (n = 360,000); in the data active = activation above about 40%; inconclusive = about 15% to 40%; inactive = below about 15%; note: compound concentration not given in the record; the text of the record calls up to 30% inactive
# Target sequence (P14416 whole entry, looked up): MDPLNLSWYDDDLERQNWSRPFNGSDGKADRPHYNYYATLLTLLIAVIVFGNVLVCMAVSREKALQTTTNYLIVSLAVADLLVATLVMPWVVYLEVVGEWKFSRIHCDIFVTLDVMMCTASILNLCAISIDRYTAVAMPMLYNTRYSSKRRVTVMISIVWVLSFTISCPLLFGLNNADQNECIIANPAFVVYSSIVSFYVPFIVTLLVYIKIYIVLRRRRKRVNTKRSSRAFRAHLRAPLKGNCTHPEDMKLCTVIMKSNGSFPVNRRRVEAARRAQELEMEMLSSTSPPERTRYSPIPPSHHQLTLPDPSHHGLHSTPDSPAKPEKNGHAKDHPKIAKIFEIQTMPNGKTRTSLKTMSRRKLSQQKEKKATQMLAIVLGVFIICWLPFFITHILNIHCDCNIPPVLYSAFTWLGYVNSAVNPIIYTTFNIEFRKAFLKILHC
#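 DiscoveRx PathHunter D2 beta-arrestin cells (2,100/well) attached overnight, then compound-stimulated 90 min at 37 C in HBSS/10 mM HEPES/0.1% Tween-20 buffer; beta-galactosidase complementation read by luminescence after 1 h at ambient temperature. Dopamine 57 uM final (EC100) as control.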
# gsp antagonist: gsp mutant antagonism | gsp-mutant cells, cAMP HTRF, 30 min; control for the full effect not named in the record | Potency, µM (top dose mostly 76.9 µM), for the others: at the top dose activity change, negative = inhibition, most hits filed as inhibitors | actives 0.4% (n = 340,000) | AID 624288; active = falling curve of any shape with a large fitted effect; inconclusive = falling curve, mostly with a smaller effect; inactive = flat or rising curve; cell line not stated here;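 note: intracellular cAMP measured with PDE inhibitor Ro 20-1724 present during compound exposure; potency is the fitted concentration of half-maximal effect; % is set by controls: 0 for no effect and ±100 for the full control effect; nearly all actives have a fitted effect of over 65% in size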
#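 HTRF cAMP read-out (cAMP-d2 plus anti-cAMP antibody-K in lysis buffer, 30 min RT). Before lysis, cells are exposed to compounds with […] for 30 min at 37C in DPBS containing Ca/Mg, BSA and Tween 20.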
# Sfp PPTase inh: Sfp phosphopantetheinyl transferase inhibition | Q9F4F7 | Biochemical Sfp PPTase activity, qHTS | Potency, µM, for the others: max response, negative = inhibition, actives largely listed as inhibitors | actives 3.5% (n = 310,000); active = well fitted inhibition curve with a large enough effect; inconclusive = small, poorly fitted or top-dose-only effect, or another doubt; inactive = no such curve, though single readings can be large or run the other way;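 note: the enzyme is Sfp with the accession as filed and its product quenches rhodamine fluorescence; potency is the fitted concentration of half-maximal effect; 0% = enzyme reaction without inhibitor and -100% = no enzyme wells; top concentration of the series not given in the record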
#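 Compounds were incubated with enzyme (final 15 nM) for 15 min at room temperature before substrate addition started the reaction. Fluorescence at 525 nm excitation, 598 nm emission was recorded immediately and after 30 minutes.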
# Starred values were filed as active, the others as inactive; ? = inconclusive; · = not tested or not shown; & = joins results of further samples; [ ] = remark or other dose.
SMILES,PINK1 expr mod,gsp ag,ClpP mod,Menin MLL FP FL,D2 agonist,gsp antagonist,Sfp PPTase inh
COc1ccc(C(C)(C)C)cc1NC(=O)CCN1C(=O)NC(C)(C)C1=O,2.0%,-22%,-0.7%,·,-2.4,2%,·
Cc1c(C(=O)N2CCCC2)c(S(=O)(=O)Nc2ccccc2)c(C)n1C,0.2%,?,1.3%,2.0,-4.7,11%,6%
Cc1cccc(/C=N/n2c(C)cc(C)c(C#N)c2=O)c1,2.2%[38.3 µM],-40%[inhibitor],-0.5%,2.9,0.0,1%,24%
COC(=O)C1(CCSC)NC(c2ccc(O)c(OC)c2)C2C(=O)N(c3ccc(C)cc3)C(=O)C21 (centres undefined),1.3%,-5%,·,-2.6,-0.4,1%,10%
Cc1ccc(S(=O)(=O)Nc2cc3c4c(c2)CCN4C(=O)CC3)cc1,8.6%,2%,-2.2%,·,-3.5,3%,·
S=C1NCN(CCc2ccccc2)CN1,0.0%,?,·,3.0,-2.4,7%,9%
COCC(=O)Nc1cc(C)cn(Cc2cccc(C(F)(F)F)c2)c1=O,1.9%,5%,-5.0%,1.3,-0.9,-9%,6%
O=C(CN1CCN(c2ccccn2)CC1)N1c2ccccc2Sc2ccc(C(F)(F)F)cc21,·,-54%[inhibitor],-12%,-3.8,0.7,?,?
Cc1nc(NC(=O)c2c(-c3ccccc3)noc2C)sc1C(=O)N(C)C,2.4%,?,0.6%,·,1.4,-6%,-11%
CC1=NN(C(=O)CCc2ccccc2)C(O)(c2ccncc2)C1 (centres undefined),-0.8%,-3%,-2.5%,2.0,10,9%,22%
O=C(O)c1ccc(Nc2nc3c(s2)CCCC3)cc1,0.3%,10µM*,-9.4%,0.4,-3.2,-15%,?
O=C(COC(=O)c1ccc([N+](=O)[O-])o1)Nc1ccc(N2CCOCC2)cc1,2.2%,36%,-1.8%,·,5.4,7%,·
O=C(O)c1cnn(-c2nc(-c3cccc(F)c3)cs2)c1C(F)(F)F,1.4%,32%[15.4 µM],·,-1.6,-0.2,-13%,11%
COc1ccc(N2CCN(C(=O)Cc3cccs3)CC2)cc1,-1.1%,-36%[inhibitor],-4.3%,-2.3,2.9,6%,11%
Cc1[nH]c(C)c(S(=O)(=O)N2CCC(C)CC2)c1C(=O)N1CCCC1,0.0%,-11%,-1.7%,1.8,0.5,7%,13%
C[C@H](NC(=O)[C@H]1N2C(=O)c3ccccc3C2SC1(C)C)C(=O)N1CCCCC1 (some centres undefined),4.0%,5%,3.2%,1.0,-2.6,6%,-11%
CC(Oc1ccccc1)C(=O)N=Nc1c(O)[nH]c2ccc(Br)cc12 (centres undefined),0.3%,-2%,-2.0%,-2.5,-3.1,3%,24%
CCN(CC)C(=O)Cn1c(=O)n(-c2ccccc2)c(=O)c2c3c(sc21)CCC3,-0.4%&-1.2%,-29%,1.1%&-1.5%,3.0,-4.6,-8%,-10%
COc1ccc2oc(=O)c(C(=O)Nc3ccccc3-c3ccccc3)cc2c1,?,8%,0.4%,0.9,-1.6,8%,14%
Cc1sc(NC(=O)CS(=O)(=O)c2ccccc2)c(C(N)=O)c1C,-0.5%,24%[15.4 µM],28µM*,·,-2.4,-12%,·
Cc1ccnc(NC(=O)CNC(=O)Cc2cccc3ccccc23)c1,-1.1%,-16%[15.4 µM],·,·,-2.3,5%,·
Cc1ccc(N2CC(NS(=O)(=O)c3cccnc3)CC2=O)cc1 (centres undefined),-0.4%,13%[15.4 µM],-6.9%,·,-1.7,4%,·
COc1cc2c(cc1OC)CN(c1nc(CN3CCOCC3)nc3sc4c(c13)CCCC4)CC2,1.0%,-50%,-1.0%,4.3,-4.2,?,-28%
Cc1ccc(N2CC(C(=O)Nc3cc(Cl)ccc3-n3cncn3)CC2=O)cc1 (centres undefined),-2.7%,20%[15.4 µM],·,·,2.4,1%,·

# Some of these compounds in order of their number in gsp antagonist, highest first.
SMILES | PINK1 expr mod | gsp ag | Menin MLL FP FL | D2 agonist | gsp antagonist | Sfp PPTase inh
Cc1[nH]c(C)c(S(=O)(=O)N2CCC(C)CC2)c1C(=O)N1CCCC1 | 0.0% | -11% | 1.8 | 0.5 | 7% | 13%
COc1ccc(N2CCN(C(=O)Cc3cccs3)CC2)cc1 | -1.1% | -36%[inhibitor] | -2.3 | 2.9 | 6% | 11%
Cc1ccc(N2CC(NS(=O)(=O)c3cccnc3)CC2=O)cc1 (centres undefined) | -0.4% | 13%[15.4 µM] | · | -1.7 | 4% | ·
CC(Oc1ccccc1)C(=O)N=Nc1c(O)[nH]c2ccc(Br)cc12 (centres undefined) | 0.3% | -2% | -2.5 | -3.1 | 3% | 24%
Cc1ccc(N2CC(C(=O)Nc3cc(Cl)ccc3-n3cncn3)CC2=O)cc1 (centres undefined) | -2.7% | 20%[15.4 µM] | · | 2.4 | 1% | ·
Cc1sc(NC(=O)CS(=O)(=O)c2ccccc2)c(C(N)=O)c1C | -0.5% | 24%[15.4 µM] | · | -2.4 | -12% | ·
O=C(O)c1cnn(-c2nc(-c3cccc(F)c3)cs2)c1C(F)(F)F | 1.4% | 32%[15.4 µM] | -1.6 | -0.2 | -13% | 11%

# The list goes on.
SMILES,PINK1 expr mod,gsp ag,ClpP mod,Menin MLL FP FL,D2 agonist,gsp antagonist,Sfp PPTase inh
O=C(NNC(=O)C1CCC1)c1ccccc1,-1.5%,-37%[inhibitor],-4.6%,·,-3.8,14%,·
O=C(Nc1ccccc1)c1cc(C2CCCCN2C(=O)c2ccc3c(c2)CCO3)on1 (centres undefined),1.3%,·,1.9%,·,-4.7,·,·
COc1ccc(C)cc1NC(=O)CN(C)S(=O)(=O)c1cc(C)ccc1OC,0.9%,9%,-2.7%,6.8,-3.1,-9%,40%[activator]
CC(=O)c1c(Nc2ccc3c(c2)OCCO3)oc(C)cc1=O,9.3%,0%,-0.7%,4.0,1.6,-4%,12%
CN1C(=O)c2ccccc2Sc2ccc(NC(=O)NC3CC3)cc21,2.2%,0%,1.4%,2.4,1.6,4%,5%
CCN(C(=S)NC(=O)C1CC1)c1ccccc1,-0.9%,-25%,-0.9%,-1.1,-2.9,6%,?
COc1cc(C(=O)NCCC(c2ccccc2)c2ccccc2)cc(OC)c1OC,0.9%,?,·,2.3,-2.5,2%,28%
CC(C)S(=O)(=O)C/C(N)=N/OC(=O)c1cc(Cl)cc(Cl)c1,0.6%,1%[15.4 µM],·,-8.7,13,-12%,13%
CC(C)[C@H]1COCCS(=O)(=O)N1Cc1ccccc1-c1cccc(Cl)c1,8.7%,·,-0.1%,·,-3.9,-15%,·
CC(C)N(Cc1ccccc1)C(=O)COC(=O)C1CCCCC1,0.8%,1%[15.4 µM],0.7%,·,-2.0,2%,·
CC(=Nc1ccc2c(c1)nc(CO)n2C)C1=C(O)CC(C)(C)CC1=O,0.4%[38.3 µM],-15%,-1.2%,2.6,3.5,9%,11%
CC[n+]1c(-c2ccccc2)csc1Nc1c(C)n(C)n(-c2ccccc2)c1=O,-0.3%,-19%,1.1%,-0.2,0.7,-10%,1%
Cc1ccccc1OCC(=O)NNC(=O)c1cc(S(=O)(=O)N(C)C)ccc1N1CCCC1,7.7%,6%,0.2%,·,-4.7,-2%,24%
O=C(NC(=S)Nc1c(Cl)cc(Cl)cc1Cl)c1ccccc1,6.1%,-30%[inhibitor],-2.3%,·,-8.6,·,·
CCOc1ccc(NC(=O)C2CC(=O)N(C)C(=Nc3ccc4c(c3)OCO4)S2)cc1 (centres undefined),1.8%[38.3 µM],?,1.4%,0.6,0.4,4%,4%
CC(=O)c1cc2c(cc1N/C(=N/S(=O)(=O)c1ccc(C)cc1)c1ccccc1)OCO2,-1.3%&-0.4%,-10%,-14%,5.5,1.5,-1%,-24%
Cc1ccc(-c2nc(SCC(N)=O)c(C#N)c3c2CCCC3)cc1,·,7%,17%,-0.3,3.0,-9%,1%
CC1CCCC(C)N1C(=O)COC(=O)c1ccc(Br)o1 (centres undefined),-0.9%,-5%[15.4 µM],-3.0%,·,1.9,10%,·
COc1ccc(Cc2nnc(NC(=O)Nc3ccc(F)cc3)s2)cc1OC,2.6%,-50%[inhibitor],2.7%,-2.5,7.3,-7%,-2%
O=C(NCc1ccco1)c1cnc2sccn2c1=O,-0.3%,2%,?,-1.2,-2.4,7%,-18%
O=C(Nc1cccnc1)c1cccc(S(=O)(=O)Nc2ccccc2F)c1,-0.3%,-4%[15.4 µM],0.2%,·,4.9,1%,·
Cc1ccc(SCc2cc(=O)n3[nH]c(C)nc3n2)cc1,-0.7%,16%,-1.9%,-9.8,-2.6,3%,-12%
NS(=O)(=O)c1ccc(NC(=O)COC(=O)CC2Sc3ccccc3NC2=O)cc1 (centres undefined),-0.6%,-43%[inhibitor],0.8%,·,2.5,2%,·
CSCC[C@H](NC(=O)c1ccc(Br)o1)c1nnc2ccccn12,-0.5%,?,-2.3%,4.0,4.5,15%,17%
COCCCNc1cc(C)nc2ccccc12,-0.3%,23%,-5.6%,-0.7,-1.0,12%,6%
CC(C)(C)NC(=O)C(c1cccs1)N(CC1CCCO1)C(=O)c1ccc(-c2ccccc2)[nH]1 (centres undefined),8.2%,2%,-20%,1.2,-2.2,?,4%
CN(C(=O)COc1ncnc2sccc12)C1CCCCC1,3.1%,7%,1.2%,·,7.8,4%,·

# Entries of single compounds, quoted from the list:
# Shown for `CCOc1ccc(NC(=O)C2CC(=O)N(C)C(=Nc3ccc4c(c3)OCO4)S2)cc1` (centres undefined) → PINK1 expr mod = 1.8%[38.3 µM]; gsp ag = ?; ClpP mod = 1.4%; Menin MLL FP FL = 0.6; D2 agonist = 0.4; gsp antagonist = 4%; Sfp PPTase inh = 4%
# Shown for `CC(=O)c1cc2c(cc1N/C(=N/S(=O)(=O)c1ccc(C)cc1)c1ccccc1)OCO2` → PINK1 expr mod = -1.3%&-0.4%; gsp ag = -10%; ClpP mod = -14%; Menin MLL FP FL = 5.5; D2 agonist = 1.5; gsp antagonist = -1%; Sfp PPTase inh = -24%
